TAR Tat displ = HIV-1 TAR-Tat binding disruption. z-score (concentration not given with the values). HIV-1 TAR RNA, Tat peptide displacement FRET; hits give high values. AID 1259389. hit rate 0.6% among 100,000;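 also: score is relative to mean and SD of negative controls; some compounds called inactive have numbers as strong as hits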
CDC25B CDK2 inh = human CDC25B-CDK2/CyclinA binding inhibition; P30305+P24941; HTRF CDC25B-CDK2/CyclinA binding, anti-His/anti-Flag; hits give high values; z-score (concentration not given with the values); hit rate 0.72% among 94,000;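 also: score is relative to mean and SD of negative controls; strong numbers were not always called active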
* marks the source's active call; other numbers are inactive results; x = not tested or not shown.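 The calls were made as follows: active = z-score from 3 up in half or more of its runs; inactive = the rest.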

Preview:
SMILES | TAR Tat displ | CDC25B CDK2 inh
Cc1ccc(NC(=S)C(C#N)C(=O)Nc2ccccc2C)c(C)c1 (stereo unspecified) | x | -1.14
COC(=O)c1ccc(/C=C/c2nc3cc(C)c(C)cc3o2)cc1 | 2.08 | -1.5
COCc1nn2c(=O)c(NC(=O)c3ccccc3)cnc2s1 | -1.94 | -0.16
O=S(=O)(NCCn1c(-c2ccccc2)nc2ccccc21)c1cccc2nsnc12 | 0.79 | x
O=C(NCCC1=CCCCC1)C(=O)Nc1c2c(nn1-c1ccccc1)CSC2 | 1.09 | x
Nc1ccc2oc(Cc3ccc(Cl)cc3)nc2c1 | -0.01 | 9.27
NC(=O)C1CCN(C(=O)CN2CCSc3ccccc32)CC1 | -1.92 | x
COc1cc(OC)c(NC2=NS(=O)(=O)C(c3ccc(C)c(C)c3)=C2C)cc1Cl | 0.12 | -0.72
C=CCOC(=O)c1sc(NC(=O)c2cc(-c3ccc4c(c3)OCCO4)on2)nc1C | -0.08 | 1.58
COc1ccc(OC)c2c(C)cc(C)nc12 | 0.72 | -2.4
O=C(CCC1Nc2c3ccccc3nc(=S)n2C1=O)NCc1cccs1 (stereo unspecified) | x | -0.77
CN1C(=O)NC2(O)C(=O)c3ccccc3C12O (stereo unspecified) | x | -2.67
CC(C)C1c2cccn2CCN1C(=O)Nc1ccc(F)cc1 (stereo unspecified) | -1.12 | x

All compounds of this part, repeating the preview:
SMILES | TAR Tat displ | CDC25B CDK2 inh
Cc1ccc(NC(=S)C(C#N)C(=O)Nc2ccccc2C)c(C)c1 (stereo unspecified) | x | -1.14
COC(=O)c1ccc(/C=C/c2nc3cc(C)c(C)cc3o2)cc1 | 2.08 | -1.5
COCc1nn2c(=O)c(NC(=O)c3ccccc3)cnc2s1 | -1.94 | -0.16
O=S(=O)(NCCn1c(-c2ccccc2)nc2ccccc21)c1cccc2nsnc12 | 0.79 | x
O=C(NCCC1=CCCCC1)C(=O)Nc1c2c(nn1-c1ccccc1)CSC2 | 1.09 | x
Nc1ccc2oc(Cc3ccc(Cl)cc3)nc2c1 | -0.01 | 9.27
NC(=O)C1CCN(C(=O)CN2CCSc3ccccc32)CC1 | -1.92 | x
COc1cc(OC)c(NC2=NS(=O)(=O)C(c3ccc(C)c(C)c3)=C2C)cc1Cl | 0.12 | -0.72
C=CCOC(=O)c1sc(NC(=O)c2cc(-c3ccc4c(c3)OCCO4)on2)nc1C | -0.08 | 1.58
COc1ccc(OC)c2c(C)cc(C)nc12 | 0.72 | -2.4
O=C(CCC1Nc2c3ccccc3nc(=S)n2C1=O)NCc1cccs1 (stereo unspecified) | x | -0.77
CN1C(=O)NC2(O)C(=O)c3ccccc3C12O (stereo unspecified) | x | -2.67
CC(C)C1c2cccn2CCN1C(=O)Nc1ccc(F)cc1 (stereo unspecified) | -1.12 | x
O=c1cc(CSc2nnnn2-c2ccccc2)nc2nc[nH]n12 | x | 2.7
O=S(=O)(NCC1CCCO1)c1ccc(S(=O)(=O)N2CCN(c3ncccn3)CC2)cc1 (stereo unspecified) | 0.38 | -1.66
O=C(CCc1nnc2ccc(N3CCCCC3)nn12)NCCN1CCOCC1 | 0.48 | x
CCOc1c(Nc2cc(Cl)ccc2C)c(=O)c1=O | 0.04 | x
CC(C)CCN(Cc1ccco1)S(=O)(=O)c1ccc2c(c1)C(C)(C)C(=O)N2C | 1.39 | x
CC1=C(C(=O)NCCN2CCOCC2)C2(CCN(S(=O)(=O)c3cccs3)CC2)OC1=O | 0.24 | x
CCCCc1c(C)[nH]n(-c2nc(C)c(C(=O)NC(C)C)s2)c1=O | 1.51 | -1.03
O=S(=O)(c1cccs1)N1CCC(c2ccncc2)CC1 | 2.44 | x
CCOC(=O)CSc1nnc(CSc2nc3ccccc3c(=O)[nH]2)n1-c1ccccc1 | -0.54 | -1.59
CCOC(=O)c1[nH]c(C)c(C(=O)NC2CCCCCC2)c1C | x | -1.81
CCS(=O)(=O)Nc1c(C)n(C)n(-c2ccccc2)c1=O | -0.39 | -0.59
CCOC(=O)C1=CC2(SC=C(C(=O)OCC)S2)C2=C(S1)C(C)(C)Nc1ccccc12 (stereo unspecified) | x | -1.89
COc1ccc(CC2(O)CCC3(CC2)OCCO3)cc1 | x | -1.06
O=C(c1cc2n(n1)C(C(F)(F)F)CC(c1ccc(F)cc1)N2)N1CCCCC1 (stereo unspecified) | 1.27 | -1.72
CCCCCCCn1c(CN2CCC(C)CC2)nc2c1c(=O)n(C)c(=O)n2C | -0.5 | 1.3
CCN(CC)CCCNC(=O)c1c(C)oc2ncnc(N3CCOCC3)c12 | 0.46 | x
CCCN1C(=O)C(O)(CC(=O)c2cccs2)c2cc(Br)ccc21 (stereo unspecified) | 1.47 | -0.91
Cc1cc(=O)nc2c3ccccc3n(C(C)C(=O)NCc3ccc4c(c3)OCO4)n12 (stereo unspecified) | 0.88 | 1.35
Oc1cccc2ccc(CNc3cccc(Cl)c3)nc12 | 0.96 | x
Cn1cnc([N+](=O)[O-])c1Sc1ccc(C(F)(F)F)cn1 | x | 0.15
CCN(CC)Cc1c[nH]c2c(C(=O)OC)cccc12 | x | 0.13
Cc1nc(-c2ccc(/C(N)=N/OC(=O)c3c(F)cccc3Cl)cc2)cs1 | x | -1.24
CC(C)Cn1c(=O)c2sccc2n2c(CCCC(=O)N3CCC(C)CC3)nnc12 | 0.01 | x
COc1ccc(OC)c(C2CC(c3ccc(OC)c(OC)c3)=NN2S(=O)(=O)c2ccc(C)cc2)c1 (stereo unspecified) | -4.61 | -2.08
c1ccc(C2=Nn3c(nnc3-c3ccco3)SC2)cc1 | x | -0.87
Cc1ccc(CNC(=O)N2CCCC2c2ccco2)cc1 (stereo unspecified) | 0.2 | 0.06
C=CCNc1oc(COc2ccccc2F)nc1C#N | -0.49 | 0.38
Oc1c(-c2cc(C(F)(F)F)[nH]n2)ccc2ccccc12 | 1.42 | -4.47
CCN1C(=O)Cc2cc(NC(=O)CC(C)(C)C)ccc21 | 1.53 | x
Cc1ccccc1C1CC(=O)c2cnc3c(-c4ccc(F)cc4)c(C)nn3c2C1 (stereo unspecified) | 1.17 | -1.41
COc1ccc(-c2csc(-n3[nH]c(-c4ccc([N+](=O)[O-])cc4)c(N=Nc4ccc(S(N)(=O)=O)cc4)c3=O)n2)cc1 | x | 0.37
COc1ccc(-c2noc(N3CCCC(C(=O)O)C3)n2)cc1OC (stereo unspecified) | 0.8 | x
CC1CCc2onc(C(=O)Nc3ccc(Cl)cc3)c2C1 (stereo unspecified) | 1.24 | x
Cc1nc2scc(C)n2c(=O)c1S(=O)(=O)Nc1ccc(N2CCN(S(C)(=O)=O)CC2)cc1 | 0.36 | -1.18
CC1=CC(C)C2COC(c3ccccc3O)C1C2C (stereo unspecified) | 0.44 | -3.04
O=C(O)CCc1ccc(-c2ccccc2)n1-c1cccc(C(=O)O)c1 | x | -1.59
NC(=O)c1c(NC(=O)CS(=O)(=O)c2ccc(Cl)cc2)sc2c1CCCC2 | 0.17 | x
CC(C)(C)c1cc2nc(C(F)(F)F)cc(N3CCN(C(=O)c4ccccc4)CC3)n2n1 | x | -1.52
CCOCCCNS(=O)(=O)c1cc(-c2onc(C)c2C)ccc1OC | -0.77 | x
O=C(Nc1cccc(Cl)c1)c1cnn2c1NC(c1ccco1)CC2C(F)(F)F (stereo unspecified) | -12.3 | x
Cc1ccc(NS(=O)(=O)c2ccc3[nH]c4c(c3c2)CCCC4)cc1N(C)C | -3.03 | x
O=C(Cn1c(=O)oc2ccccc21)Nc1ccc(F)cc1F | 0.54 | x
CC1CCCC(NC(=O)C2(C)Cn3c(cc4occc43)C(=O)N2Cc2ccco2)C1C (stereo unspecified) | 4.17 | x
Cc1nc(Nc2ccc(F)cc2)nc2c1nnn2-c1ccc(F)cc1 | 1.08 | -1.77
O=C(CSc1nccn1-c1ccc(Cl)cc1)NC1CCCC1 | x | -3.31
C=CCOc1ccc2c(=O)c(-c3ccccc3Cl)coc2c1 | 1.71 | -0.99
C#Cc1cccc(NC(=O)c2sc3nc4c(c(-c5cccs5)c3c2N)CCCC4)c1 | x | -1.21

More records:
SMILES | TAR Tat displ | CDC25B CDK2 inh
COc1ccc(C)cc1Nc1nc(N)c2cc(OC)c(OC)cc2n1 | -0.55 | -1.17
COc1ccc(OC)c(S(=O)(=O)Nc2cc3c(cc2N2CCCCC2)n(C)c(=O)c(=O)n3C)c1 | 1.42 | x
CCOC(=O)NC(=O)/C(=C/NCc1ccco1)C(=O)OCC | x | -1.35
O=C1N(c2ccccc2)C2CS(=O)(=O)CC2N1c1ccccc1 (stereo unspecified) | -0.92 | -1.94
O=C(CCCc1nnc2c(=O)n(-c3cccc(F)c3)ccn12)Nc1ccccc1 | -1.29 | x
CCOc1ccc(C(=O)c2cc(O)c(OC)c(OC)c2O)cc1 | 0.49 | x
c1ccc(-c2nnn3c2nc(N2CCCCC2)c2ccccc23)cc1 | 0.82 | -1.93
CC(C)CCNC(=O)C1(C)Cn2c(c(-n3cccc3)c3ccccc32)C(=O)N1CCc1cccs1 (stereo unspecified) | 1.27 | x
CCN1CCN(C(=O)c2cc3ccc4cccnc4c3[nH]2)CC1 | -0.03 | x
CCOC(=O)c1c(NC(=O)C2=Cc3ccccc3OC=C2)sc2c1CCC(CC)C2 (stereo unspecified) | -0.83 | -0.91
NC(=O)C1=C(O)C(=O)N(C2CCCCC2)C1 | x | 0.1
CSc1cccc(NC(=O)c2cc3c(s2)-c2ccccc2OC3)c1 | 0.1 | -0.99
O=C1N(Cc2c(F)cccc2Cl)c2ccccc2S(=O)(=O)N1Cc1ccccc1 | 1.62 | x
COC(=O)C1=C(C)NC2=C(C(=O)c3ccccc32)C1c1ccc(OCc2ccccc2F)cc1 (stereo unspecified) | 0.33 | x
CC1=C(C(=O)Nc2cccc(C)n2)C(c2ccsc2)C2=C(CC(C)(C)CC2=O)N1 (stereo unspecified) | 0.26 | -1.88
CCCCNc1nc(Nc2ccc(Cl)cc2)nc(N2CCOCC2)n1 | x | -0.96
Cc1c(Sc2nnc(-c3cccs3)n2-c2ccc(F)cc2)c(=O)[nH]c2cc3c(cc12)OCO3 | x | -18
Cc1ccc(NC(=O)Nc2noc3c2COc2ccccc2-3)c(Br)c1 | 0.94 | x
O=C(c1ccc(Cl)cc1)N1N=C(c2ccccc2)CC1(O)C(F)(F)F (stereo unspecified) | x | 0.43
CCSC1=C(C#N)C(c2cccs2)C(C(=O)Nc2ccccc2)=C(C)N1 (stereo unspecified) | 1.14 | -0.24
CCc1ccc(N2CC(C)Cn3c2nc2c3c(=O)n(CC(=O)O)c(=O)n2C)cc1 (stereo unspecified) | 1.64 | -2.23
O=C(Nc1ccc(Cl)cn1)c1cc(-c2cccs2)on1 | 1.4 | -1.85
COc1ccc(N2CCN(C(=O)c3ccc(N4CCSc5ncccc54)s3)CC2)cc1 | 1.16 | x
O=c1c2nccnc2nc(SCc2ccc(Cl)cc2)n1CCc1c[nH]c2ccccc12 | 0.96 | -1.84
CSC[C@H](C(=O)O)N1Cc2ccccc2C1=O | 1.63 | -0.72
NC1=NC(c2ccccc2Cl)n2c(nc3ccccc32)N1 (stereo unspecified) | 0.56 | 0.28
CS(=O)(=O)Nc1nc2ccc(NC(=O)CC3CCCCC3)cc2s1 | -2.29 | x
CCOC(=O)C1C(c2cccnc2)NC(=O)NC1(O)C(F)(F)F (stereo unspecified) | x | -0.56
Cc1ccc(C)c(CNS(=O)(=O)c2ccc3c(c2)NC(=O)CCS3)c1 | 0.82 | x
CCCc1nn2c(=O)cc(COc3cc(C)c(Cl)c(C)c3)nc2s1 | 0.96 | -0.35
COc1ccc(C2CC(=O)N3CN(CCCc4ccccc4)CSC3=C2C#N)cc1OC (stereo unspecified) | 0.56 | 5.85*
O=C(CSc1n[nH]c(=O)n1-c1cccnc1)Nc1ccccc1Cl | x | 0.29
Nc1nc(Nc2ccc(Cl)cc2)nc(N2CCCCC2)c1[N+](=O)[O-] | 0.97 | x
Cc1nccn1-c1c2c(c(C#N)c3nc4ccccc4n13)CCCC2 | 0.67 | -0.54
CC(C)NC(=O)C1CCN(C(=O)N2CCOc3ccccc32)CC1 | 2.14 | x
CC1CCN(c2c(NCC3CCC(C(=O)Nc4nccs4)CC3)c(=O)c2=O)CC1 (stereo unspecified) | -0.47 | -2.47
COc1cc(OC)c(NS(=O)(=O)c2cc3c(cc2Cl)NC(=O)CO3)cc1Cl | -2.54 | x
O=C(CSc1nc(-c2ccccc2)nc2cc(=O)[nH]n12)N1CCCC1 | 1.75 | x
O=S(=O)(Nc1ccc(-c2nnc(-c3ccccc3)o2)cc1)c1ccccc1 | 1.5 | x
CN(C)[C@@H]1C(=O)C(C(N)=O)=C(O)[C@@]2(O)C(=O)C3=C(O)c4c(O)ccc(Cl)c4[C@@H](O)[C@H]3C[C@@H]12 | x | -1.48
COc1ccc(C2C3=C(CCCC3=O)Nc3nc(SCc4cccc(Cl)c4)nn32)cc1 (stereo unspecified) | 1.17 | -1.43
COc1cc(S(=O)(=O)N2CCC(n3c(=O)[nH]c4ccccc43)CC2)ccc1-n1cnnn1 | x | -1.48
Cc1ccc2nc(-c3cccnc3)c(Nc3ccc(Cl)cc3)n2c1 | x | 1.39
COc1ccc(-c2nc(SCC(=O)c3ccc(OC)c(Br)c3)n[nH]2)cc1 | 0.57 | 1.88
Cc1ccc(C)c(NC(=O)CSc2nnc(C)n3c2cc2oc(C)cc23)c1 | 2.13 | x
COC(=O)CSc1ncnc2c1sc1nc(CC(C)C)c3c(c12)CC(C)(C)OC3 | 1.54 | -3.65
COC(=O)c1sccc1S(=O)(=O)Nc1ccccc1 | -0.13 | x
CCNc1nc2c(c(=O)n(C)c(=O)n2C)n1CC | x | -0.88
CN(C)CC#Cc1ccc(-c2ccn[nH]2)s1 | x | 0.25
